# FGF22 binding: binders of recombinant human FGF22 by thermal shift; SYPRO orange fluorescence; percent of sucrose octasulfate shift, DMSO zero; AID 651658; 340,000 tested, 1.5% active; calls only at 9.99 µM; Q9HCT0;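 active means melting point raised past a set limit in the mean and every replicate; three in four hits are not shown here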
# Target sequence (Q9HCT0 whole entry, looked up): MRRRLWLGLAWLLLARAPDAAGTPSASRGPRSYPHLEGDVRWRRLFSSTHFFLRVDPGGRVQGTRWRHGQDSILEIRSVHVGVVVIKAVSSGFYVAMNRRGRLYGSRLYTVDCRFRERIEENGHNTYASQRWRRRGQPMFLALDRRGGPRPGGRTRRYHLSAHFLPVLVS
# Calls only; i = inactive. These rows are one share of the data. The share of hits here may be higher or lower than overall.
FGF22 binding | molecule
i | C[C@@H]1CCCCO[C@@H](CN(C)C(=O)c2ccccc2)[C@H](C)CN([C@@H](C)CO)C(=O)c2cc(NS(=O)(=O)c3ccc(Cl)cc3)ccc2O1
i | Cc1cc(C(=O)Nc2ccc3c(c2)C(=O)N(C)[C@H]2CC[C@H](CC(=O)NCc4ccc(-c5ccccc5)cc4)O[C@H]2CO3)no1
i | C[C@@H]1CN([C@@H](C)CO)C(=O)c2cc(-c3ccccc3)cnc2O[C@H]1CN(C)Cc1ccccc1
i | O=C(CC1CC1)N1[C@H](CO)[C@H]2c3ccccc3N(S(=O)(=O)c3ccccc3F)C[C@H]21
i | CO[C@@H]1CN(C)C(=O)c2cc(NC(=O)c3cnccn3)ccc2OC[C@@H](C)N(CCc2ccccc2)C[C@@H]1C
i | O=C(C[C@@H]1C=C[C@H](NC(=O)Nc2cc(F)ccc2F)[C@@H](CO)O1)NCc1ccccn1
i | O=C(C[C@@H]1C=C[C@H](NC(=O)Nc2cc(F)ccc2F)[C@H](CO)O1)Nc1ccccc1
i | O=C(Nc1ccc(F)cc1)N1[C@@H](CO)[C@@H]2c3ccccc3NC[C@@H]21
i | COc1ccccc1S(=O)(=O)N(C)C[C@H]1OCc2ccccc2-c2ccccc2C(=O)N([C@@H](C)CO)C[C@H]1C
i | Cc1ccc(S(=O)(=O)N(C)C[C@H]2Oc3c(NC(=O)Nc4ccc5c(c4)OCO5)cccc3C(=O)N([C@@H](C)CO)C[C@H]2C)cc1
i | COc1ccc(C(=O)Nc2ccc3c(c2)OC[C@@H](C)N(C)C[C@@H](C)[C@@H](OC)CN(C)C3=O)cc1
i | C[C@@H]1CCCCO[C@@H](CN(C)CC2CCCCC2)[C@H](C)CN([C@@H](C)CO)C(=O)c2cc(NC(=O)CCCCCC(=O)Nc3ccccc3N)ccc2O1
i | C/C=C/c1ccc([C@@H]2[C@@H](CO)N(C(=O)CC)[C@H]2CNC(=O)CC)cc1
i | C[C@H](CO)N1C[C@H](C)[C@@H](CN(C)S(=O)(=O)c2ccc(F)cc2)Oc2ccc(NC(=O)Nc3ccccc3)cc2CC1=O
i | COc1ccc(NC(=O)N(C)C[C@@H]2Oc3ccc(NC(=O)Nc4c(C)noc4C)cc3CC(=O)N([C@@H](C)CO)C[C@H]2C)cc1
i | O=C(C[C@H]1C=C[C@H](NC(=O)CC2CC2)[C@@H](CO)O1)NCC(F)(F)F
i | C[C@H]1CN([C@@H](C)CO)C(=O)c2cc(C#Cc3ccccc3)cnc2O[C@@H]1CN(C)S(=O)(=O)c1ccccc1F
i | C[C@H](CO)N1C[C@H](C)[C@@H](CN(C)C(=O)Cc2ccccn2)Oc2ncc(-c3ccc(F)cc3)cc2C1=O
i | CNC[C@H]1Oc2ccc(NC(=O)CCCN(C)C)cc2C(=O)N([C@@H](C)CO)C[C@H]1C
i | O=C(C[C@H]1CC[C@H]2[C@@H](COC[C@@H](O)CN2C(=O)c2ccccc2)O1)N1CCc2ccccc2C1
i | CCCNC(=O)N1C[C@H]2[C@@H](c3ccccc31)[C@H](CO)N2C(=O)Cc1ccccn1
i | O=C(C[C@H]1CC[C@@H](NS(=O)(=O)c2ccccc2)[C@@H](CO)O1)NCc1ccccc1F
i | CNC[C@H]1Oc2c(NC(=O)NC(C)C)cccc2C(=O)N([C@@H](C)CO)C[C@H]1C
i | O=C(C[C@H]1C=C[C@H](NC(=O)c2cnccn2)[C@@H](CO)O1)NCc1ccccc1F
i | CN(C)c1ccc2c(c1)[C@H]1C[C@H](CC(=O)NC3CCCC3)O[C@H](CO)[C@H]1O2
i | O=C(NCC[C@H]1CC[C@H](NS(=O)(=O)c2ccccc2)[C@H](CO)O1)c1cc(Cl)cc(Cl)c1
i | O=C(Nc1ccccc1F)N[C@H]1C=C[C@@H](CC(=O)N2CCCCC2)O[C@@H]1CO
i | COc1ccc(NC(=O)Nc2ccc3c(c2)C(=O)N([C@H](C)CO)C[C@H](C)[C@H](CN(C)Cc2ccc4c(c2)OCO4)OCCCC[C@@H](C)O3)cc1
i | COCC#Cc1ccc2c(c1)O[C@H](CN(C)C(=O)Nc1ccc(OC)cc1)[C@H](C)CN([C@@H](C)CO)S2(=O)=O
i | C[C@@H]1CN([C@H](C)CO)C(=O)c2cc(NC(=O)Nc3ccccc3)ccc2O[C@H]1CN(C)S(=O)(=O)c1cn(C)cn1
i | C[C@@H]1CN([C@H](C)CO)C(=O)Cc2cc(NS(=O)(=O)c3ccc(F)cc3)ccc2O[C@H]1CN(C)C(=O)Nc1cccc2ccccc12
i | C[C@H](CO)N1C[C@H](C)[C@H](CN(C)Cc2ccc(C(=O)O)cc2)Oc2ccc(NC(=O)Cn3cnnn3)cc2CC1=O
i | C[C@@H]1CN([C@H](C)CO)C(=O)c2cc(NS(=O)(=O)c3cn(C)cn3)ccc2O[C@H]1CN(C)S(=O)(=O)c1ccc(F)cc1
i | CNC[C@@H]1Oc2ccc(NC(=O)Cc3cn(C)c4ccccc34)cc2CC(=O)N([C@H](C)CO)C[C@@H]1C
i | O=C(C[C@@H]1CC[C@H]2[C@@H](COC[C@H](O)CN2CCC(F)(F)F)O1)NCC1CC1
i | C/C=C/c1ccc2c(c1)O[C@H](CN(C)C(=O)COC)[C@H](C)CN([C@@H](C)CO)S2(=O)=O
i | N#C[C@H]1[C@H](c2ccc(C#Cc3ccc(F)cc3)cc2)[C@H](CO)N1c1nc(-c2ccccc2)cs1
i | CC(C)NC(=O)Nc1ccc2c(c1)CC(=O)N([C@@H](C)CO)C[C@@H](C)[C@@H](CN(C)Cc1ccccc1)O2
i | C[C@H](CO)N1C[C@H](C)[C@H](CN(C)C(=O)Nc2ccc(C(F)(F)F)cc2)Oc2ccc(NS(=O)(=O)c3cn(C)cn3)cc2C1=O
i | C[C@H](NC(=O)C[C@@H]1C[C@H]2c3cc(NC(=O)c4cccnc4)ccc3O[C@H]2[C@@H](CO)O1)c1ccccc1
i | O=C1O[C@H](c2ccccc2)[C@H](c2ccccc2)N2[C@H]1[C@@H](C(=O)N1CCCCCCC1)[C@]1(C(=O)Nc3ccc(C#CC4(O)CCCCCC4)cc31)[C@H]2c1ccccc1OCCO
i | COc1ccc(CN(C)C[C@H]2Oc3c(NC(=O)NC4CCCCC4)cccc3C(=O)N([C@@H](C)CO)C[C@@H]2C)cc1
i | C[C@@H]1CCCCO[C@H](CN(C)Cc2ccc(C(F)(F)F)cc2)[C@@H](C)CN([C@H](C)CO)C(=O)c2cc(NC(=O)C3CCCCC3)ccc2O1
i | COc1ccc(NC(=O)N(C)C[C@@H]2Oc3ncc(-c4cccnc4)cc3C(=O)N([C@@H](C)CO)C[C@H]2C)cc1
i | CO[C@H]1CN(C)C(=O)c2cc(NC(=O)C3CCC3)ccc2OC[C@@H](C)N(Cc2ccncc2)C[C@@H]1C
i | Cc1noc(C)c1S(=O)(=O)N(C)C[C@H]1OCCCC[C@@H](C)Oc2ccc(N(C)C)cc2C(=O)N([C@@H](C)CO)C[C@@H]1C
i | O=C(Cc1ccncc1)Nc1ccc2c(c1)[C@H]1C[C@@H](CC(=O)N3CCc4ccccc4C3)O[C@H](CO)[C@H]1O2
i | CCc1cnc(N2[C@H](C#N)[C@H](c3ccc(-c4cccc(F)c4)cc3)[C@H]2CO)s1
i | C[C@H](CO)N1C[C@H](C)[C@@H](CN(C)Cc2ccc(C(F)(F)F)cc2)Oc2c(NS(=O)(=O)c3cn(C)cn3)cccc2C1=O
i | CCCC(O)C#Cc1cnc2c(c1)C(=O)N([C@H](C)CO)C[C@H](C)[C@H](CN(C)C(=O)Nc1ccc(F)cc1)O2 (stereo partly drawn)
i | COc1ccc2c3c([nH]c2c1)[C@@H](CO)N(Cc1ccncc1)CC31CCN(C(=O)Cc2ccncc2)CC1
i | CC(C)NC(=O)N[C@@H]1CC[C@@H](CCN)O[C@@H]1CO
i | C[C@H](CO)N1C[C@H](C)[C@@H](CN(C)Cc2cccc(F)c2)Oc2ncc(C3=CCCCC3)cc2C1=O
i | Cc1noc(C)c1S(=O)(=O)Nc1ccc2c(c1)C(=O)N([C@H](C)CO)C[C@@H](C)[C@@H](CN(C)Cc1ccc(C(F)(F)F)cc1)O2
i | C[C@H](CO)N1C[C@H](C)[C@@H](CN(C)Cc2ccc(C(=O)O)cc2)Oc2ccc(NC(=O)Nc3cccc4ccccc34)cc2CC1=O
i | C[C@H]1CN([C@@H](C)CO)C(=O)c2cccc(NC(=O)Nc3ccc4c(c3)OCO4)c2O[C@@H]1CN(C)Cc1ccc(Oc2ccccc2)cc1
i | C[C@H]1CN([C@@H](C)CO)C(=O)c2cc(NC(=O)Nc3cccc4ccccc34)ccc2O[C@@H]1CN(C)Cc1ccc(C(=O)O)cc1
i | C[C@H]1CN([C@@H](C)CO)C(=O)c2cc(NC(=O)Nc3ccccc3)ccc2O[C@@H]1CN(C)C(=O)Nc1ccc(F)cc1
i | C/C=C/c1ccc([C@@H]2[C@@H](CO)N(C(=O)CN(C)C)C23CN(C(=O)C2CCC2)C3)cc1
i | CCCCc1c(-c2ccccc2OC)ncn1C1CCCCC1

# More compounds follow:
FGF22 binding | molecule
i | OC[C@@H]1[C@H](c2ccc(Br)cc2)[C@H]2CN(Cc3ccccn3)CCCCN12
i | COc1cc(CN2CC3(CCN(C(=O)Nc4c(C)noc4C)CC3)c3c(n(C)c4cc(OC)ccc34)[C@@H]2CO)cc(OC)c1
i | C[C@@H]1CN([C@@H](C)CO)C(=O)c2cc(/C=C/c3ccccc3)cnc2O[C@H]1CN(C)C
i | Cc1cccc(S(=O)(=O)N2C[C@@H]3[C@H](c4ccccc42)[C@H](CO)N3C(=O)CC2CC2)c1
i | CO[C@H]1CC[C@@H]2CCOc3c(C#N)cccc3C(=O)N(C)C[C@@H](OC)[C@H](C)C(=O)N(C)C[C@@H]1O2
i | CC=Cc1ccc2n(c1=O)C[C@@H]1[C@@H](CO)[C@H](C(=O)NCC)N(C(=O)C3CCOCC3)[C@H]21 (mixture of isomers)
i | C[C@H]1CCCCO[C@H](CN(C)S(=O)(=O)c2ccccc2)[C@@H](C)CN([C@@H](C)CO)C(=O)c2cc(NC(=O)Nc3ccc(C(F)(F)F)cc3)ccc2O1
i | C[C@H]1CN([C@@H](C)CO)S(=O)(=O)c2ccc(Br)cc2O[C@@H]1CN(C)S(C)(=O)=O
i | COc1ccc(NC(=O)N[C@@H]2CC[C@H](CCNS(=O)(=O)c3ccccc3F)O[C@H]2CO)cc1
i | C[C@@H]1CN([C@H](C)CO)S(=O)(=O)c2ccc(-c3ccc(C#N)cc3)cc2O[C@H]1CN(C)C
i | CC(C)NC(=O)Nc1ccc2c(c1)C(=O)N(C)[C@@H]1CC[C@@H](CC(=O)Nc3ccccc3)O[C@H]1CO2
i | CNC[C@@H]1OCCCC[C@H](C)Oc2ccc(NS(=O)(=O)c3cccs3)cc2C(=O)N([C@@H](C)CO)C[C@H]1C
i | C[C@H]1CN([C@@H](C)CO)C(=O)c2cccc(NC(=O)CCCCCC(=O)Nc3ccccc3N)c2O[C@H]1CN(C)Cc1ccc(-c2ccccc2)cc1
i | C[C@@H]1CN([C@H](C)CO)C(=O)c2cc(NC(=O)Nc3ccc(C(F)(F)F)cc3)ccc2O[C@@H](C)CCCCO[C@H]1CN(C)C(=O)Nc1ccc(C(F)(F)F)cc1
i | CC(C)NC(=O)N(C)C[C@H]1Oc2c(NS(=O)(=O)c3ccccc3)cccc2C(=O)N([C@@H](C)CO)C[C@@H]1C
i | CCC(=O)Nc1ccc2c(c1)C(=O)N(C)[C@@H]1CC[C@@H](CC(=O)NC3Cc4ccccc4C3)O[C@H]1CO2
i | CNC[C@H]1Oc2ncc(C#CCC3CCCC3)cc2C(=O)N([C@H](C)CO)C[C@H]1C
i | C[C@@H]1CCCCO[C@H](CN(C)Cc2ccc3c(c2)OCO3)[C@@H](C)CN([C@H](C)CO)C(=O)c2cc(NS(=O)(=O)c3cn(C)cn3)ccc2O1
i | COc1cccc(NC(=O)Nc2ccc3c(c2)C(=O)N(C)[C@H]2CC[C@@H](CC(=O)O)O[C@H]2CO3)c1
i | Cc1ccc(S(=O)(=O)N(C)C[C@@H]2OCCCC[C@H](C)Oc3ccc(NS(=O)(=O)c4cccs4)cc3C(=O)N([C@H](C)CO)C[C@@H]2C)cc1
i | C[C@@H]1CCCCO[C@H](CN(C)Cc2ccc3c(c2)OCO3)[C@H](C)CN([C@H](C)CO)C(=O)c2cc(N(C)C)ccc2O1
i | CO[C@@H]1CN(C)C(=O)c2ccc(NC(=O)C3CC3)cc2OC[C@@H](C)N(C(=O)C2CCOCC2)C[C@@H]1C
i | COC(=O)C[C@H]1C[C@H]2c3cc(NC(=O)Nc4ccccc4F)ccc3O[C@H]2[C@H](CO)O1

# Some of the entries so far, with bars between the fields.
mol | FGF22 binding
OC[C@@H]1[C@H](c2ccc(Br)cc2)[C@H]2CN(Cc3ccccn3)CCCCN12 | i
COc1cc(CN2CC3(CCN(C(=O)Nc4c(C)noc4C)CC3)c3c(n(C)c4cc(OC)ccc34)[C@@H]2CO)cc(OC)c1 | i
C[C@@H]1CN([C@@H](C)CO)C(=O)c2cc(/C=C/c3ccccc3)cnc2O[C@H]1CN(C)C | i

# Retrieved by compound from the list above:
FGF22 binding | molecule
i | CCCC(O)C#Cc1cnc2c(c1)C(=O)N([C@H](C)CO)C[C@H](C)[C@H](CN(C)C(=O)Nc1ccc(F)cc1)O2 (stereo partly drawn)
i | CC(C)NC(=O)N(C)C[C@H]1Oc2c(NS(=O)(=O)c3ccccc3)cccc2C(=O)N([C@@H](C)CO)C[C@@H]1C
i | Cc1cc(C(=O)Nc2ccc3c(c2)C(=O)N(C)[C@H]2CC[C@H](CC(=O)NCc4ccc(-c5ccccc5)cc4)O[C@H]2CO3)no1
i | Cc1noc(C)c1S(=O)(=O)Nc1ccc2c(c1)C(=O)N([C@H](C)CO)C[C@@H](C)[C@@H](CN(C)Cc1ccc(C(F)(F)F)cc1)O2
i | COc1ccc(NC(=O)N[C@@H]2CC[C@H](CCNS(=O)(=O)c3ccccc3F)O[C@H]2CO)cc1

# High-throughput results: PubChem, Broad Institute
